GLA inh pH 4.5: blocks human alpha-galactosidase A at pH 4.5 | activity change, negative = inhibition, % at 105 µM | 230,000 tested, under 10 active | P06280 | purified enzyme, 4-MU-alpha-Gal fluorescence, pH 4.5; inconclusive = small, poorly fitted or top-dose-only inhibition, or a rising curve; inactive = flat fitted curve, though single readings scatter; no compound was filed as active;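 also: 0% = full activity with enzyme and -100% = basal without enzyme; dose as in the result columns while the protocol names 77 µM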
miR-21 FLuc: miR-21 reporter, rising signal; HeLa miR-21 FLuc reporter, luciferase, 48 h; Potency, µM (top dose mostly 38.3 µM), for inactives: top-dose reporter change, positive = more light; 340,000 tested, under 10 active; active = well fitted rising curve with a large enough effect; inconclusive = small, poorly fitted or top-dose-only effect; inactive = no such curve, though single readings can be large or run the other way;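 also: % of control where 0% means no effect; miR-21 action dims this reporter so a rising signal means less miR-21 action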
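Using DMEM plus 10% FBS, HeLa miR-21-FLuc cells are incubated with test compounds (final up to about 40uM) for 48 hours; firefly luciferase signal is then imaged following reagent-mediated lysis.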
Rango dissoc inh: prevents RanGTP from dissociating the Rango-importin beta complex; O95149+P62826; Biochemical FRET Rango-importin beta, RanGTP-induced dissociation; Potency, µM (series often up to 46.1 µM), inactives show at the highest dose activity change, negative = inhibition; 340,000 tested, 0.071% active; active means falling FRET ratio curve, often poorly fitted, with flat reads before Ran was added; inconclusive means other falling curves, or compound fluorescence or quenching; inactive means flat or rising ratio curve;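 also: potency is read from the fitted curve at half-maximal effect; % of control where 0% means no effect; nearly all actives have a fitted effect of over 45% in size; -100% = wells without RanGTP and RCC1; the record marks most hits as doubtful in a second field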
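Recombinant Rango FRET biosensor (EYFP–snurportin 1 IBB–cerulean CFP10) at 0.1 uM premixed with 0.25 uM importin beta in PBS, 1 mM DTT, 0.02% Tween-20, 0.1% BSA. Compound added 5 min; RanGTP-RCC1 (0.6 uM Ran, 2 mM GTP, 0.2 uM RCC1) then triggers release, read at 45 min.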
Rango-impB inh: Rango-importin beta binding inhibition; Rango CFP/YFP FRET sensor + importin beta, 45 min; 340,000 tested, 0.031% active; Q14974; Potency, µM (doses to about 92.2 µM), without a hit: top-dose inhibition of complex formation; active = rising FRET ratio curve, often small or poorly fitted; inconclusive = mostly compound fluorescence or quenching in the first reads; inactive = flat curves in all reads;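 also: potency is read from the fitted curve at half-maximal effect; 0% = DMSO wells and 100% = buffer wells lacking importin beta; nearly all actives have a fitted effect of over 15% in size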
Target sequence (Q14974 whole entry, looked up): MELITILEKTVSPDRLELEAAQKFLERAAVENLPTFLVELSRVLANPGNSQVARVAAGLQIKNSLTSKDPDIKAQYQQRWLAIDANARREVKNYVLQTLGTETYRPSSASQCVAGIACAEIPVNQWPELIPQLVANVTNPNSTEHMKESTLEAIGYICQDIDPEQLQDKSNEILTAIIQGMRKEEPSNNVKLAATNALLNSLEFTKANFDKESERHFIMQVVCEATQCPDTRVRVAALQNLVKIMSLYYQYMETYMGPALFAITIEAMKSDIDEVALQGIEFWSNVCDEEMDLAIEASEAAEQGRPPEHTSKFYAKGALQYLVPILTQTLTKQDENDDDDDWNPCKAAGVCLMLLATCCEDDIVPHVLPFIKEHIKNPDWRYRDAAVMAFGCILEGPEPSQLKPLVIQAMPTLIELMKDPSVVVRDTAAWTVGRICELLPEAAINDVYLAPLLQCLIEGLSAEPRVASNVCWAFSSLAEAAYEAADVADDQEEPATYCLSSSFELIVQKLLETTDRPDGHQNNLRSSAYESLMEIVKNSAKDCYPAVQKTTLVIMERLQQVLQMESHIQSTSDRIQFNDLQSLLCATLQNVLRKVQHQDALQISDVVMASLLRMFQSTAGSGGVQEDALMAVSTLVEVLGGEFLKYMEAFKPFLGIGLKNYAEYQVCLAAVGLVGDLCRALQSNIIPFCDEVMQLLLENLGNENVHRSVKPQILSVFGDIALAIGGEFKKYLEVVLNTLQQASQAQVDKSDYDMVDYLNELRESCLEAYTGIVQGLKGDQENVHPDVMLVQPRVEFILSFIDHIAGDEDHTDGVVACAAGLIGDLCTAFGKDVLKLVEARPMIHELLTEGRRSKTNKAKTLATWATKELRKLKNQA
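FRET biosensor (snurportin 1 IBB flanked by EYFP and cerulean), 50 nM, with compound 5 min, then 0.125 microM importin beta in PBS, 1 mM DTT, 0.02% Tween-20, 0.1% BSA. CFP/YFP ratio read after 45 min at room temperature; pre-read flags interference.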
Starred values were filed as active, the others as inactive. The list is partial; count on the stated rates, not on these rows.

COc1ccc(NC(=S)NCCCCCC(=O)C[N+](=O)[O-])cc1 was read as GLA inh pH 4.5 1, miR-21 FLuc -6%, Rango dissoc inh -16% and Rango-impB inh -1.4%.
For Cc1ccc2c(CSc3nncs3)cc(=O)oc2c1 the results were GLA inh pH 4.5 -1, miR-21 FLuc -37%, Rango dissoc inh -12% and Rango-impB inh 6.2%.
For COC(=O)c1sc(NC(=O)CSc2nnnn2C)nc1C the results were miR-21 FLuc -68%, Rango dissoc inh -6% and Rango-impB inh -5.3%.
`CCOc1ccc(CCNC(=O)Cn2c(-c3nonc3N)nc3ccccc32)cc1OCC` gave GLA inh pH 4.5 -8, miR-21 FLuc -4%, Rango dissoc inh -4% and Rango-impB inh -8.1%.
COCCCN1CN(S(=O)(=O)c2cccs2)c2nc3ccccc3nc21 was read as GLA inh pH 4.5 -26, miR-21 FLuc -19%, Rango dissoc inh -4% and Rango-impB inh 0.1%.
COC(=O)C1C(=O)C=C(N2CCOCC2)CC1(C)C (stereo not given) was read as GLA inh pH 4.5 -1, miR-21 FLuc 1%, Rango dissoc inh -4% and Rango-impB inh inconclusive.
For COC(=O)C[C@H]1c2cc(C(F)(F)F)ccc2S(=O)(=O)N1C1CCCCC1 the results were Rango dissoc inh 6% and Rango-impB inh 3.1%.
`O=C(Nc1nc(-c2ccc(F)cc2)cs1)c1ccc(N2C(=O)CCC2=O)cc1` gave GLA inh pH 4.5 4, miR-21 FLuc 3%, Rango dissoc inh 6% and Rango-impB inh -6.9%.
For Nc1c(C(=O)Nc2cccc(Cl)c2Cl)sc2nc(-c3cccnc3)ccc12 the results were GLA inh pH 4.5 6, miR-21 FLuc -13%, Rango dissoc inh inconclusive and Rango-impB inh inconclusive.
CCN(CC)S(=O)(=O)c1ccc(C(=O)OCC(=O)Nc2ccc(-c3nc4ccc(C)cc4s3)cc2)cc1 was read as GLA inh pH 4.5 6, miR-21 FLuc -51%, Rango dissoc inh 0% and Rango-impB inh -6.0%.
`COc1nc(NC2CCCCC2)nc(N2CCCCCC2)n1` gave GLA inh pH 4.5 -8, miR-21 FLuc 1%, Rango dissoc inh -1% and Rango-impB inh 0.1%.
`C#CCOCCOCCOCCNc1nc(N2CCN(C(=O)C([C@@H](C)CC)n3cc(C(N)CO)nn3)CC2)nc(N2CCN(C(=O)C([C@@H](C)CC)n3cc(C(N)COC(=O)C(F)(F)F)nn3)CC2)n1` (stereo not given in full) gave Rango dissoc inh 3% and Rango-impB inh 1.8%.
Screening COC(=O)C1C(=O)c2c([nH]c(C(=O)OC3CCCC3)c2C)CC1C (stereo not given) returned GLA inh pH 4.5 -5, miR-21 FLuc -63%, Rango dissoc inh 2% and Rango-impB inh 2.4%.
For O=C(c1ccc(C(=O)N2CCCc3ccccc32)nc1)N1CCCc2ccccc21 the results were GLA inh pH 4.5 -8, miR-21 FLuc -8%, Rango dissoc inh 12% and Rango-impB inh 2.4%.
Screening CC1CCCN(C(=O)Cn2c(=O)oc3cc(S(=O)(=O)N4CCCCC4C)ccc32)C1 (stereo not given) returned Rango dissoc inh -5% and Rango-impB inh 0.0%.
`O=C(Cn1cnc2c(cnn2-c2ccccc2)c1=O)c1ccc(Cl)cc1` gave GLA inh pH 4.5 2, miR-21 FLuc 0%, Rango dissoc inh inconclusive and Rango-impB inh 2.9%.
Screening Cc1noc(C)c1COc1ccccc1C(=O)N1CCN(S(=O)(=O)c2ccccc2C(F)(F)F)CC1 returned Rango dissoc inh 0% and Rango-impB inh 2.3%.
For CCCCNc1c(-c2cccc(SC3CCCCC3)c2)nc2ccc(Cl)cn12 the results were Rango dissoc inh inconclusive and Rango-impB inh inconclusive.
`O=C(N/N=C/c1c[nH]c2ccc(Br)cc12)c1ccccn1` gave GLA inh pH 4.5 3, miR-21 FLuc -35%, Rango dissoc inh -9% and Rango-impB inh -2.5%.
For Cc1ccc(C(=O)N/C(=C/c2ccc(C(C)C)cc2)C(=O)NCCCN2CCOCC2)cc1 the results were GLA inh pH 4.5 -2, miR-21 FLuc -9%, Rango dissoc inh 1% and Rango-impB inh -1.7%.
Screening S=c1[nH]c(-c2cccs2)cn1-c1ccccc1 returned miR-21 FLuc -22%, Rango dissoc inh -4% and Rango-impB inh 2.8%.
For CC1(NC(=O)c2cc(Cl)nc3ccccc23)CCS(=O)(=O)C1 (stereo not given) the results were Rango dissoc inh 1% and Rango-impB inh 3.3%.
Screening CCOC(=O)C1=C(CN2CCN(C(=O)c3ccco3)CC2)NC(=O)NC1c1ccc(C)cc1 (stereo not given) returned miR-21 FLuc -12%, Rango dissoc inh -18% and Rango-impB inh -3.8%.
`CC(=O)c1cccc(S(=O)(=O)N2CCN(c3nc4cc(C)cc(C)c4cc3C#N)CC2)c1` gave GLA inh pH 4.5 2, miR-21 FLuc -2%, Rango dissoc inh 6% and Rango-impB inh inconclusive.
CCC(C(=O)NC(C)(C)C)N(Cc1cccs1)C(=O)CNS(=O)(=O)c1ccccc1 (stereo not given) was read as GLA inh pH 4.5 6, miR-21 FLuc 6%, Rango dissoc inh -3% and Rango-impB inh -3.3%.
COc1ccc(NC(=O)CCOc2ccccc2F)cc1S(=O)(=O)N1CCCCC1 was read as Rango dissoc inh -3% and Rango-impB inh 0.8%.
`O=C(NCC1CCCO1)C(c1ccc(F)cc1)N(Cc1ccc(F)cc1)C(=O)Cn1nnc(-c2cccs2)n1` (stereo not given) gave GLA inh pH 4.5 0, miR-21 FLuc -10%, Rango dissoc inh -2% and Rango-impB inh 0.8%.
CC(=O)Nc1ccc2c(c1)N(C(=O)CN(C)C)c1ccccc1CC2 was read as GLA inh pH 4.5 11, miR-21 FLuc -1%, Rango dissoc inh -1% and Rango-impB inh -2.4%.
C[C@@H]1COC(=O)[C@@H](CC(=O)OC(C)(C)C)C/C=C\C[C@H](CC(=O)NCCO)C(=O)N1 was read as Rango dissoc inh 24% and Rango-impB inh -0.5%.
CCCc1noc2c1C(c1ccoc1)C(C#N)=C(N)N2 (stereo not given) was read as GLA inh pH 4.5 0, miR-21 FLuc 8%, Rango dissoc inh -3% and Rango-impB inh 0.2%.

Part of the list above in order of molecular weight, smallest number first.
COC(=O)C1C(=O)C=C(N2CCOCC2)CC1(C)C (stereo not given) was read as GLA inh pH 4.5 -1, miR-21 FLuc 1%, Rango dissoc inh -4% and Rango-impB inh inconclusive.
For Nc1c(C(=O)Nc2cccc(Cl)c2Cl)sc2nc(-c3cccnc3)ccc12 the results were GLA inh pH 4.5 6, miR-21 FLuc -13%, Rango dissoc inh inconclusive and Rango-impB inh inconclusive.
`CC(=O)c1cccc(S(=O)(=O)N2CCN(c3nc4cc(C)cc(C)c4cc3C#N)CC2)c1` gave GLA inh pH 4.5 2, miR-21 FLuc -2%, Rango dissoc inh 6% and Rango-impB inh inconclusive.
CCC(C(=O)NC(C)(C)C)N(Cc1cccs1)C(=O)CNS(=O)(=O)c1ccccc1 (stereo not given) was read as GLA inh pH 4.5 6, miR-21 FLuc 6%, Rango dissoc inh -3% and Rango-impB inh -3.3%.

Going on with the list.
For CN(CCC#N)C(=O)CC1(Cc2ccccc2)CCOC(C)(C)C1 (stereo not given) the results were GLA inh pH 4.5 -2, miR-21 FLuc 2%, Rango dissoc inh 18% and Rango-impB inh 2.3%.
CC1CCN(C(=O)COC(=O)c2ccc(N3CCCC3=O)cc2)CC1 was read as Rango dissoc inh 11% and Rango-impB inh 2.9%.
Screening Cc1c(Cl)cccc1NC(=S)NCCc1ccc(F)cc1 returned miR-21 FLuc 15%, Rango dissoc inh -5% and Rango-impB inh 3.2%.
`Cc1n[nH]c(=O)c2c(NC(=O)CSc3nncs3)oc(C)c12` gave Rango dissoc inh 10% and Rango-impB inh 1.4%.
CC(C)=NOCc1ccc(-c2cn([C@@H]3COC[C@H]3O)nn2)cc1 was read as GLA inh pH 4.5 2 and miR-21 FLuc -17%.
Nc1nonc1C(=O)N/N=C/c1cc2c(cc1[N+](=O)[O-])OCO2 was read as miR-21 FLuc -2%, Rango dissoc inh 14% and Rango-impB inh 6.2%.
O=C(NC(O)C(=O)c1cccs1)c1cccnc1 (stereo not given) was read as GLA inh pH 4.5 8, miR-21 FLuc 1%, Rango dissoc inh 2% and Rango-impB inh -3.5%.
CCC[C@@H]1CCCO[C@@](C(=O)NCc2ccccn2)(C(F)(F)F)C1 was read as Rango dissoc inh 14% and Rango-impB inh -4.8%.
`COCCN(CC1CCCN(C2Cc3ccccc3C2)C1)C(=O)c1cccc(C)c1` (stereo not given) gave miR-21 FLuc -8%, Rango dissoc inh -12% and Rango-impB inh -3.5%.
For COc1ccc(C(CC(=O)Nc2nccs2)n2cccc2)cc1 (stereo not given) the results were GLA inh pH 4.5 -6, miR-21 FLuc -24%, Rango dissoc inh -4% and Rango-impB inh 0.1%.
For CCOC(=O)C1CCCN(S(=O)(=O)c2cc3[nH]c(=O)c(=O)[nH]c3cc2C)C1 (stereo not given) the results were miR-21 FLuc -1%, Rango dissoc inh -19% and Rango-impB inh 0.3%.
Screening COc1ccc(CCn2nnnc2CN2CCN(C(=O)c3ccco3)CC2)cc1OC returned GLA inh pH 4.5 -2, miR-21 FLuc 0%, Rango dissoc inh 10% and Rango-impB inh 0.9%.
For CC(C)[C@H](NC(=O)c1c(F)cccc1F)C(=O)Nc1cccc(Br)c1 the results were miR-21 FLuc 0%, Rango dissoc inh -6% and Rango-impB inh -0.4%.
Screening Nc1c(C(=O)NC2CCCC2)c2nc3ccccc3nc2n1/N=C/c1ccco1 returned GLA inh pH 4.5 5, miR-21 FLuc 6%, Rango dissoc inh inconclusive and Rango-impB inh inconclusive.
Screening NNC(=O)C(Cc1c[nH]c2ccccc12)NC(=O)c1ccccc1 (stereo not given) returned GLA inh pH 4.5 -8, miR-21 FLuc 3%, Rango dissoc inh 1% and Rango-impB inh 1.7%.
O=C(C1CCCN(Cc2ccc3c(c2)OCO3)C1)N1CCCC1 (stereo not given) was read as GLA inh pH 4.5 -4, miR-21 FLuc -7%, Rango dissoc inh 27% and Rango-impB inh -0.4%.
`CC(C)COc1cccc(C(=O)N(C)CC(=O)Nc2cccc3ccccc23)c1` gave Rango dissoc inh -14% and Rango-impB inh -1.9%.
`O=S(=O)(NCC(c1ccco1)N1CCc2ccccc21)c1ccccc1` (stereo not given) gave Rango dissoc inh -6% and Rango-impB inh -2.4%.
For COc1ccccc1CCNC(=O)C(=O)NCC1OCCN1S(=O)(=O)c1ccccc1 (stereo not given) the results were miR-21 FLuc -1%, Rango dissoc inh 0% and Rango-impB inh 0.4%.
For CCOC(=O)Nc1cccc(OCC(=O)Nc2ccccc2OCC)c1 the results were GLA inh pH 4.5 -1, miR-21 FLuc 4%, Rango dissoc inh 47% and Rango-impB inh 7.1%.
For CCOc1cc(NC2CS(=O)(=O)CC2O)c(OCC)cc1NC(=O)c1ccccc1 (stereo not given) the results were GLA inh pH 4.5 -1, miR-21 FLuc 0%, Rango dissoc inh -7% and Rango-impB inh 0.1%.
CC(C)(C)C(=O)NNc1nc(-c2ccccc2)c2cc(Br)ccc2n1 was read as GLA inh pH 4.5 6, miR-21 FLuc 6%, Rango dissoc inh 0% and Rango-impB inh -0.3%.
Screening COc1cc(C(=O)N/N=C/c2ccc(OC(=O)N3CCOCC3)cc2)cc(OC)c1OC returned GLA inh pH 4.5 -9, miR-21 FLuc 9%, Rango dissoc inh 4% and Rango-impB inh -4.6%.
Brc1cccc(-c2nnc3sc(CNCc4ccco4)cn23)c1 was read as GLA inh pH 4.5 -5, miR-21 FLuc -2%, Rango dissoc inh -26% and Rango-impB inh 0.1%.
`O=C(Nc1cccc(NC(=O)c2ccco2)c1)c1ccccc1` gave miR-21 FLuc -8%, Rango dissoc inh -7% and Rango-impB inh 0.3%.
Cc1ccc2c(C(=O)CN3CCN(C(=O)c4ccco4)CC3)c(C)[nH]c2c1 was read as GLA inh pH 4.5 -2, miR-21 FLuc -6%, Rango dissoc inh 1% and Rango-impB inh 2.8%.
Screening Cc1nc(NCC2CCCO2)c2nnn(Cc3ccccc3Cl)c2n1 (stereo not given) returned GLA inh pH 4.5 9, miR-21 FLuc -6%, Rango dissoc inh -3% and Rango-impB inh 0.2%.
Cc1cc(NC(=O)CSc2nc(C(C)C)nc3sc(C)c(C)c23)no1 was read as GLA inh pH 4.5 -1, miR-21 FLuc -6%, Rango dissoc inh 0% and Rango-impB inh 3.5%.

Source: PubChem BioAssay
